Screens as filed in PubChem BioAssay.
RanGTP-Imp inh – inhibitors of RanGTP-importin-beta interaction, primary screen, biochemical, FRET, CFP-Ran, YFP-importin-beta, homogeneous; inhibition, % (no concentration beside the values); Ran GTPase (GTP-bound) - importin-beta complex; AID 2216, 2009; cell-free CFP-Ran/YFP-importin-beta FRET ratio; 1.1% of 300,000 active;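 active means most replicates above 15%; inconclusive means exactly half above 15%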;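 further: 0% = DMSO wells and 100% = Ran loaded with GDP instead of GTP; wells of about 40 µL received 100 nL stock; the first replicate is given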
Calb FLC – C. albicans growth inhibition with fluconazole, primary screen, CaCi-2 strain, Alamar Blue fluorescence. growth inhibition, % (test concentration not listed). C. albicans CaCi-2 (fluconazole-resistant clinical isolate) + fluconazole, 48 h. 0.57% of 300,000 active;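 active means most replicates above 75%; inconclusive means exactly half above 75%; inactive means most below 75%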;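 further: all wells also contain fluconazole at 8 µg/ml as a sub-toxic cotreatment; 0% = median of DMSO wells and 100% = median of geldanamycin control wells; wells of about 8 µL received 7.5 nL stock; the first replicate is given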
T cruzi repl – inhibitors of intracellular T. cruzi growth, primary screen, luminescence, NIH3T3 host cells; T. cruzi beta-gal in NIH3T3, 90 h; AID 1885, 2009; 1.4% of 300,000 active; inhibition, % (no concentration beside the values);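 active means mean inhibition across valid replicates above about 55%, limit read from the data; inconclusive means mean below that limit but half or more replicates reach it; inactive means mean below it, under half of replicates reach it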;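 further: signal also drops with host cell toxicity which is not excluded here; 0% = plate median of DMSO wells and 100% = zero luminescence signal; higher percent means less beta-gal luminescence so fewer parasites; stock transfer was 50 nL into about 50 µL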
rRNA inh HTS – reduced GFP signal of wild-type E. coli, primary screen, bacterial rRNA inhibitor project, GFP/RFP fluorescence, OD600, single point. 1.6% of 350,000 active. GFP signal change (wild-type ribosome), % (concentration not given with the values). E. coli WT GFP vs humanized-ribosome RFP mutants, 24 h; hits give low values; DMSO median 0, no signal -100;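 active means significant combined selectivity score with lowered wild-type GFP, culture density cut under 30%, mutant RFP and density less affected; inactive means any of these conditions unmet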; further: one replicate is shown; some compounds called inactive have numbers as strong as hits
Bfl-1 A1 inh – caspase 3/7 activation in MEF A1-2A-BIM cells, primary screen, A1 inhibitor project, cell-based, luminescence, HTS; Caspase-Glo 3/7 luminescence, 3 h; percent of clofoctol response, vehicle zero; caspase activation, % (test concentration not listed); 0.066% of 330,000 active;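 active means over half of replicate activation scores above 10%, or exactly half above 10 with the replicate mean above 10; inconclusive means replicate mean below 10 yet half the replicates above 10; inactive means over half of replicates below 10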;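 further: wells of about 30 µL received 50 nL stock; many hits fall short of the cut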
Beta apoptosis – inhibitors of cytokine-induced beta cell apoptosis, primary screen, luminescence; 0.8% of 300,000 active; INS-1E cytokine-induced death, ATP luminescence, 48 h; percent of positive-control rescue, neutral wells zero; protection from apoptosis, % (test concentration not listed);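 active means all replicates at 75% or more, or half of them and the mean; inconclusive means half reach 75% but not the mean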;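 further: 0% = cytokine-treated negative control wells and 100% = positive control rescue; higher means more ATP so stronger rescue from cytokine killing; wells of about 40 µL received 100 nL stock; the first replicate is given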
Vif TR-FRET – inhibitors of Vif binding to APOBEC3G peptide, primary screen, biochemical, TR-FRET, GST-Vif 1-94, biotin-A3G peptide, dose response retest (AID 1117319); TR-FRET GST-Vif / biotin-A3G peptide binding; higher % means a stronger effect; test concentration not given here; strong numbers were not always called active; Virion infectivity factor (Human immunodeficiency virus type 1 group M subtype B (isolate …; 0.57% of 260,000 active; inhibition, %; hits with a dose series show IC50 in µM;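 active means above the screen mean plus three standard deviations and confirmed in dose response; inconclusive means results disagree or hit not tested in dose response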;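 further: Vif residues 1-94 fused to GST binding biotinylated APOBEC3G peptide 110-148; 0% = full assay without inhibitor and 100% = GST in place of GST-Vif; retest series ran down from 100 µM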
MLL AF4-AF9 inh – inhibitors of AF4 peptide binding to AF9, primary screen, biochemical, AlphaScreen, biotin-AF4 peptide, FLAG-AF9, single point; Protein AF-9 (Homo sapiens), P42568; inhibition, % at 10 µM; 0.47% of 350,000 active;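 active means every replicate reaching a set inhibition limit, whatever the replicate mean, cut at about 25% in these data; inconclusive means mean inhibition reaches that limit but some replicates miss it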;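 further: 0% = plate neutral control median and 100% = total signal loss; the record names both 10 and 1 µM as test concentration; the first replicate is given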
Target sequence (P42568 whole entry, looked up): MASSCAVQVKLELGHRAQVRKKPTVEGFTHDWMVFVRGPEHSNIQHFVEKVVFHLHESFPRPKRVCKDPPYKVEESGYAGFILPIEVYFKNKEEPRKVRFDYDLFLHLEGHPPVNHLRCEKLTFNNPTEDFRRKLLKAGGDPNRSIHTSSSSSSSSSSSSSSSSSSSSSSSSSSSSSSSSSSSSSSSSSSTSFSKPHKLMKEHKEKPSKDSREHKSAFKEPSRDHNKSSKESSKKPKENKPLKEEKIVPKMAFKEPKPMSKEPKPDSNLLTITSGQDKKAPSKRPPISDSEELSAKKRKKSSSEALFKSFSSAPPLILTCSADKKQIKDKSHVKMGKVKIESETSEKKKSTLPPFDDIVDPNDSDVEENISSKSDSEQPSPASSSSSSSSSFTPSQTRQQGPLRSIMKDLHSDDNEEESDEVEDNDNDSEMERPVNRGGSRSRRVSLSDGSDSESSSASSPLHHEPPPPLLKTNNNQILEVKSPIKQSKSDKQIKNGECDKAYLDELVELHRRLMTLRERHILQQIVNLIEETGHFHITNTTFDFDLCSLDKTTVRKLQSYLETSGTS
rRNA inh HTS OD600 – also measured in rRNA inh HTS; calls as there; OD600 change, %; measured here: OD600 growth;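 optical density of the mix in the first replicate; 0 = DMSO median and -100 = no signal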
rRNA inh HTS RFP – recorded beside rRNA inh HTS, whose call it bears; RFP signal change, %; measured here: RFP humanized mutant strains;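 first replicate; 0 = DMSO median and -100 = no signal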
Starred values were filed as active, the others as inactive; ? = inconclusive; nt = no result given; & = joins results of further samples.

molecule	RanGTP-Imp inh	Calb FLC	T cruzi repl	rRNA inh HTS	rRNA inh HTS OD600	rRNA inh HTS RFP	Bfl-1 A1 inh	Beta apoptosis	Vif TR-FRET	MLL AF4-AF9 inh
CC(=O)Oc1ccc(-c2csc(Nc3cccnc3)n2)cc1	-4.5	-9	22	nt	nt	nt	-1.6	8	-2%	nt
CCCCCCNC(=O)N1C/C=C\C(c2ccc(OC)cc2)N(Cc2ccc(F)cc2)C(=O)C1 (stereo unspecified)	-2.7	26	-6	-21	-39	14	0.3	-10	nt	0.3
O=C(CSCc1c(Cl)cccc1Cl)Nc1ccc2c(c1)OCO2	?	-13	10	nt	nt	nt	-0.4	-3	6%	nt
CCOc1ccc(S(=O)(=O)N2CCN(c3ccccc3)CC2)c2cccnc12	3.9	12	0	-19	-19	-0.2	0.3	-2	24%	nt
O=C(CCS(=O)(=O)c1ccccc1)Nc1ccc(N2CCN(Cc3ccccc3)CC2)cc1	nt	nt	nt	7	15	-1.2	-0.2	0	nt	2.4
Cc1ccc2c(c1)N(C(=O)CCC(=O)NCCCN1CCOCC1)CCO2	?	1	4	5	5	-3.2	-1.8	2	nt	-9.7
CC(=O)Nc1cccc(N2CCCC2=O)c1	-3.0	23	-2	3	-1	-0.4	0.1	-9	17%	-0.9
CC(C)(C)c1cc(NC(=O)c2cccnc2)no1	-2.8	-16	1	nt	nt	nt	-2.6	1	11%	nt
NC(=S)NN=C1c2ccccc2-c2ccccc21	0.7	2	26	-6	-13	1.0	0.3	25	1%	6.7
CNC(=O)/C(C#N)=C\c1cc(C)n(-c2ccc(N3CCOCC3)cc2)c1C	-2.1	13	12	-8	-9	-1.1	0.2	-3	nt	-1.2
CCOc1ccc(NC(=O)COC(=O)Cn2cnnn2)cc1OCC	0.0	-9	5	11	3	-1.2	-0.6	-2	2%	3.4
Cc1ccc2cc(CCl)c(Cl)nc2c1	2.4	-8	-6	14	-5	-5.7	0.0	-3	1%	7.8
CCOC(=O)c1ccc(NC(=O)Nc2cc(C)on2)cc1	-5.0	0	6	nt	nt	nt	-0.2	1	26%	nt
COc1cc(/C=C2\SC(=N)N(c3ccc4c(c3)OCO4)C2=O)cc(OC)c1O	7.0	-3	-14	3	-4	-2.1	-0.1	2	3%	1.2
Cc1ccc(C(C)C)c(OCC(=O)N/N=C/c2cccn2C)c1	1.3	-5	2	5	-8	-3.7	0.0	3	2%	-1.7
CC1(C)CC2(CCO1)OC(=O)CC2C(=O)Nc1ccc(Cl)cc1[N+](=O)[O-] (stereo unspecified)	1.3	-6	-7	0	4	-1.0	0.5	-5	nt	-1.5
O=C(Nc1ccccc1)C1=C[C@@H](c2ccc(C(F)(F)F)cc2)C[C@@H](OCc2ccc(CO)cc2)O1	0.1	18	43	7	6	0.9	0.9	12	7%	1.3&0.4
CCn1cc(Br)c(C(=O)Nc2ccc(Cl)c(Cl)c2)n1	57*	23	-6	nt	nt	nt	-0.9	6	-1%	nt
COc1ccc([N+](=O)[O-])cc1NS(=O)(=O)c1cccc(C(=O)OC2CCOC2=O)c1 (stereo unspecified)	nt	nt	nt	4	4	-2.3	-0.1	-1	nt	-16
COc1ccc([C@H]2/C=C\CN(C(=O)c3ccccc3)[C@@H](C)C(=O)N2Cc2ccc(F)cc2)cc1	3.0	1	3	-10	-13	1.3	1.3	1	nt	nt
O=c1c(Cc2ccc(Cl)cc2Cl)c(O)ccn1Cc1ccc(Cl)cc1	-0.9	-1	1	nt	nt	nt	-0.5	2	-3%	nt
Clc1ccc2ccc3cccnc3c2n1	1.6	7	-14	0	1	-2.5	1.1	24	1%	-2.4
COc1ccc(/C=C/C(=O)NC(=S)Nc2ccc(S(=O)(=O)Nc3ccc(OC)nn3)cc2)cc1	-1.6	-5	-10	nt	nt	nt	-0.3	2	6%	nt
C[C@@H]1CN([C@H](C)CO)C(=O)c2cc(NC(=O)Nc3ccc(F)cc3)ccc2O[C@H]1CN(C)C(=O)Nc1ccc(C(F)(F)F)cc1	nt	nt	nt	-1	-3	-1.0	0.5	0	-5%	nt
CC(=O)Nc1cccc(-c2csc(NCc3ccccc3)n2)c1	3.2	-3	9	-30*	-23*	3.2*	2.1	-1	9%	13
Cc1cc(N2CCN(C)CC2)nc2ccc(NC(=S)N3CCC4(CC3)OCCO4)cc12	-3.3	0	47	5	3	1.8	-0.5	-6	-1%	8.7
CSc1cccc(NC(=S)N(CCC(C)C)C2CCN(C(C)C)CC2)c1	8.2	4	-7	-20	-16	-0.9	0.6	-3	nt	6.9
Cc1ccc(-c2cc(-c3nnc(SCC(=O)NCC(C)C)n3N)c3ccccc3n2)cc1	2.7	-2	27	nt	nt	nt	-0.6	-1	1%&0%	nt
O=C(CCC(=O)OCC(=O)c1ccc(-c2ccccc2)cc1)Nc1cccc(Cl)c1	2.7	-14	-1	nt	nt	nt	-0.9	-1	-12%	nt
O=C(O)c1cc2c(cc1Br)OCCCO2	4.9	6	0	nt	nt	nt	0.3	-2	nt	nt
Cc1ccc(Nc2nc(N)nc(-c3oc4ccccc4c3C)n2)cc1	-3.0	33	46	nt	nt	nt	0.9	67	-3%	nt
CCc1cc(=O)oc2cc(OCc3ccc(C(=O)O)o3)ccc12	-2.0	-4	-21	-2	5	1.1	-3.2	-3	3%	-3.1
CCCCC(=O)NC(=S)Nc1cccc(NC(=O)CC)c1	-3.8	34	-6	nt	nt	nt	0.8	3	-4%	nt
O=C(Nc1ccccc1C(=O)N1CCOCC1)C1COc2ccccc2O1 (stereo unspecified)	-0.3	-14	5	11	1	-6.6	0.6	-2	2%	-2.5
Cc1cccc(NC(=O)c2c(O)c3ccccc3[nH]c2=O)c1	-0.1	nt	-5	3	6	7.4	-2.1	-9	2%	0.5
COC(=O)C(C(=O)OC)C(C(=O)OC)C(C(=O)OC)C(=O)OC	1.7	6	-7	nt	nt	nt	-0.2	4	4%	nt
O=C1CC(Cc2ccccc2)C(=O)N1c1ccccn1 (stereo unspecified)	-3.7	-6	-8	0	6	0.9	1.0	-4	-4%	1.5
COc1cc(CNc2cccc(C(=O)O)c2)cc(Br)c1OCC(=O)NC(C)(C)C	?	-5	-18	nt	nt	nt	0.7	1	nt	nt
Cc1cc(NC(=O)CCC(=O)N(Cc2ccco2)C(C(=O)NC2CCCCC2)c2ccccc2)no1 (stereo unspecified)	1.7	6	13	nt	nt	nt	0.0	-7	-6%	nt
O=C(Nc1ccccc1Cl)c1ccc(S(=O)(=O)N2CCOCC2)cc1	-3.2	3	-30	-4	-4	0.1	1.0	-4	2%	-11
O=C(/C=C\c1ccco1)Nc1cc([N+](=O)[O-])ccc1F	2.2	-8	-50	nt	nt	nt	0.4	53	?	nt
Cc1ccccc1CCNC(=O)C1CCC(=O)N(Cc2ccc(Cl)cc2)C1 (stereo unspecified)	-1.5	2	-9	4	-24	1.8	-0.6	1	nt	-0.5
Cc1ccc(CN2CCN(C(=O)CCC(=O)Nc3nnc(C(C)C)s3)CC2)c(C)c1	-3.9	9	39	1	-13	-0.6	0.6	3	nt	-0.9
CCc1nc(SCC(=O)Nc2cc(C)ccc2OC)c2c(C)c(C)sc2n1	1.0	-8	-3	-7	1	4.0	-0.1	13	nt	1.9
CNc1ccccc1C(=O)OCC(=O)N(CCOC)c1c(N)n(CC(C)C)c(=O)[nH]c1=O	1.8	-8	-11	3	6	-3.8	-0.2	nt	-3%	-38
Cc1ccc(C(=O)N2CCCC(c3ccc(Cl)cc3)=N2)cc1	-4.2	12	15	-12	-6	3.6	0.1	10	18%	14
O=C(O)c1cccc(NS(=O)(=O)c2cccc(C(=O)Nc3ccccc3[N+](=O)[O-])c2)c1	3.6	1	-19	5	6	-1.5	0.3	-5	-6%	0.2
CCOc1ccc(CCNC(=O)COC(=O)C2CCN(c3ccc(C(F)(F)F)cn3)CC2)cc1OCC	0.2	5	-6	-14	-12	-1.8	-0.3	-3	nt	-0.1
O=C(Cc1ccccc1)Nc1nnc(SCC(=O)NC2CCCC2)s1	4.1	-1	-6	10	6	2.0	-0.7	1	?	2.5
Cc1cc(C)nc(Oc2ccc(Br)cc2)n1	-0.1	-7	-8	1	2	-5.8	0.0	-7	?	4.4
Cc1ccc(S(=O)(=O)N(C)C)cc1NC(=O)COC(=O)c1ccc(Cl)cc1	-3.8	0	-5	19	18	2.1	0.5	-4	8%	1.6
Cc1ccc(CN2CCNC2=O)cc1	-3.3	-29	-17	5	6	-2.8	2.3	-7	0%	-22
COc1ccc(C(=O)NCCCSC)cc1OC1CCN(C(C)C)CC1	2.5	6	-3	-4	6	5.9	0.4	nt	nt	-3.8
Cc1cc(C)c(S(=O)(=O)N2CCN(C(=O)c3c(C)noc3C)CC2)c(C)c1	nt	nt	nt	nt	nt	nt	0.8	-6	-10%	-2.2
COCCCNC(=S)NNC(=O)c1cc(C2CC2)nc2ccccc12	2.6	-5	-2	5	3	-0.5	0.1	0	nt	-1.4
O=c1oc2ccccc2cc1-c1csc(NN=C2CCCC2)n1	-3.3	-5	29	nt	nt	nt	1.2	-9	6%	nt

The list continues.
molecule	RanGTP-Imp inh	Calb FLC	T cruzi repl	rRNA inh HTS	rRNA inh HTS OD600	rRNA inh HTS RFP	Bfl-1 A1 inh	Beta apoptosis	Vif TR-FRET	MLL AF4-AF9 inh
COc1ccccc1C(=O)NCCC(=O)Nc1ccc(S(=O)(=O)N2CC(C)CC(C)C2)cc1 (stereo unspecified)	nt	nt	nt	-1	-11	27	-0.3	-1	-6%	-1.7
O=C(O)c1ccc(-c2nnc(-c3cccc(Br)c3)o2)cc1	1.9	0	-2	6	6	-1.2	-8.6	-2	-5%	3.1
Cc1cc(C(=O)N/N=C/c2ccc(-c3cccc(Cl)c3Cl)o2)n[nH]1	-0.5	-10	20	nt	nt	nt	-0.8	nt	?	nt
COc1ccc(-n2c(Cc3cc(=O)[nH]c(=O)[nH]3)nnc2SCC(=O)Nc2ccccc2)cc1	0.5	-1	-9	7	12	1.9	0.1	-2	1%	0.0
CCCn1nc(Oc2nc(NC(C)C)nc(N(C)C)n2)ccc1=O	-2.9	-7	-12	7	9	1.6	0.2	-2	4%	-2.1
COc1ccc(CN2CCCCCC2)cc1	?	-3	-9	7	5	2.1	-0.3	-2	nt	-2.8
CC(C)OCCCN(CC(O)c1ccccc1)CC(O)c1ccccc1 (stereo unspecified)	-1.7	-7	-7	7	6	0.3	0.1	-1	5%	2.4
Cc1c(CC(=O)N[C@@H](C)C(=O)O)c(=O)oc2cc3c(cc12)CCC(C)(C)O3	?	-1	-8	15	14	2.0	1.7	-8	5%	3.7

An excerpt, so the mix of outcomes need not match the whole.
